High-throughput results as filed in PubChem BioAssay.
AF4-AF9 inh: inhibitors of human MLL-AF4/AF9 interaction; P42568; AlphaScreen, biotin-AF4 peptide binding to FLAG-AF9; inhibition, % at 10 µM; 0.47% of 350,000 active; AID 651704;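 active means every replicate reaching a set inhibition limit, whatever the replicate mean, cut at about 25% in these data; inconclusive means mean inhibition reaches that limit but some replicates miss it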;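 further: 0% = plate neutral control median and 100% = total signal loss; the record names both 10 and 1 µM as test concentration; the first replicate is given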
Target sequence (P42568 whole entry, looked up): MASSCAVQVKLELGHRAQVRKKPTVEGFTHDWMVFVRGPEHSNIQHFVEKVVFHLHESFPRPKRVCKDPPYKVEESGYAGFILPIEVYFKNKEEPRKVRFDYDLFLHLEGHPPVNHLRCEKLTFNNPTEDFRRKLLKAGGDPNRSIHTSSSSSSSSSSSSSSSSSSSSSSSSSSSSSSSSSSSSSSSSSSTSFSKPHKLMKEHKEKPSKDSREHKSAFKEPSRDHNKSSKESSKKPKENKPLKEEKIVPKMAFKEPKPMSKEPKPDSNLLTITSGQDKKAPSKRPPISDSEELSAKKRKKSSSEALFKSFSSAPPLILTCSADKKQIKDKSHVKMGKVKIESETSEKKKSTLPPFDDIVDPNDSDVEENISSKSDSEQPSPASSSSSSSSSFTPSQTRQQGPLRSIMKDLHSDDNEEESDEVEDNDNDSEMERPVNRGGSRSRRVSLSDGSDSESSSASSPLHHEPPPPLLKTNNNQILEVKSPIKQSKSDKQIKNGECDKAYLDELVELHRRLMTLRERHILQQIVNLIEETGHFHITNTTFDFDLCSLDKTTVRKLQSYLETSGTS
An asterisk follows results filed as active; ? = inconclusive. This is a subset. The share of hits here may be higher or lower than overall.

SMILES | AF4-AF9 inh
CCC(=O)Nc1ccc2c(c1)OC[C@H](C)N(C(=O)C1CC1)C[C@H](C)[C@H](OC)CN(C)C2=O | -1.3
O=S(=O)(c1ccc(F)cc1)N1CCCCN2[C@@H](CO)[C@H](c3ccc(-c4ccccc4F)cc3)[C@@H]2C1 | -0.1
CC(C)NC(=O)N(C)C[C@@H]1Oc2ncc(-c3ccc(F)cc3)cc2C(=O)N([C@H](C)CO)C[C@@H]1C | -0.3
COc1ccc(CN(C)C[C@H]2Oc3ccc(NS(=O)(=O)c4ccccc4)cc3C(=O)N([C@@H](C)CO)C[C@@H]2C)cc1 | 0.0
C=CC(COC(C)=O)NS(=O)(=O)c1ccc(Br)cc1 (centres undefined) | -6.5
CO[C@@H]1CN(C)C(=O)c2ccc(NC(=O)C3CCCC3)cc2OC[C@@H](C)NC[C@H]1C | -1.4
CSc1ccc(CN(C)C(=O)c2ccc(S(=O)(=O)Nc3c(C)n(C)n(-c4ccccc4)c3=O)cc2)cc1 | 0.2
O=C(C[C@@H]1CC[C@@H]2[C@H](COC[C@@H](O)CN2Cc2nccs2)O1)NCc1ccccc1F | -2.9
C=CCOC(=O)[C@@H]1[C@H]2C(=O)O[C@H](c3ccccc3)[C@H](c3ccccc3)N2[C@H](c2ccc(OCCOC(=O)[C@@H]3C[C@@H]4C(=O)N[C@@H](Cc5ccccc5)C(=O)N4[C@@H]3c3ccc(O)cc3)cc2)[C@@]12C(=O)Nc1ccc(I)cc12 | -2.0
C[C@@H]1CCCCO[C@H](CN(C)C(=O)Nc2ccc3c(c2)OCO3)[C@@H](C)CN([C@H](C)CO)C(=O)c2cc(N(C)C)ccc2O1 | 9.9
C[C@@H]1CN([C@@H](C)CO)S(=O)(=O)c2ccc(C#CC3CCCC3)cc2O[C@@H]1CN(C)C(=O)C1CC1 | -17
CCCC(=O)Nc1ccc2c(c1)C(=O)N(C)C[C@@H](OC)[C@@H](C)CN(Cc1cncnc1)[C@@H](C)CO2 | -0.4
CC(C)(C)NC(=O)C(c1ccccc1)n1c(=O)c(-c2cc3ccccc3[nH]2)nc2ccccc21 (centres undefined) | -67
C[C@@H]1CCCCO[C@@H](CN(C)C(=O)Nc2ccc(F)cc2)[C@@H](C)CN([C@H](C)CO)C(=O)c2cc(NC(=O)NC3CCCCC3)ccc2O1 | -1.6
COCC(=O)N[C@@H]1CC[C@@H](CC(=O)NCc2ccc(Cl)cc2)O[C@@H]1CO | -1.9
C[C@@H]1CN([C@@H](C)CO)S(=O)(=O)c2ccc(-c3cccc(C#N)c3)cc2O[C@H]1CN(C)C(=O)Nc1cc(F)ccc1F | -1.2
COc1ccc(NC(=O)N2CCCCN3[C@H](CO)[C@H](c4ccc(C#Cc5ccccc5)cc4)[C@H]3C2)cc1 | 7.5
C[C@H]1CCCCO[C@@H](CN(C)S(=O)(=O)c2ccccc2)[C@@H](C)CN([C@@H](C)CO)C(=O)c2cc(NC(=O)C3CCCCC3)ccc2O1 | 2.8
COc1cccc(-c2ccc3c(c2)O[C@H](CN(C)C(=O)C2CCCCC2)[C@H](C)CN([C@@H](C)CO)S3(=O)=O)c1 | 0.9
CC(=O)N1[C@H](CN(CC2CCC2)C(=O)CC2CC2)[C@@H](c2ccccc2)[C@@H]1CO | -0.7
C[C@@H]1CN([C@@H](C)CO)C(=O)c2cc(NS(=O)(=O)c3cn(C)cn3)ccc2O[C@H]1CN(C)S(=O)(=O)c1cccs1 | -1.0
N#Cc1ccc(-c2ccc([C@@H]3[C@@H](CO)N4C(=O)CNC[C@H]34)cc2)cc1 | -1.8
O=C(NCCc1ccccc1)c1cccc2c(-c3ccc(F)c(F)c3)coc12 | -0.8
Cc1ccc(S(=O)(=O)N2CCC(=O)N([C@H](COCc3ccc(C(F)(F)F)cc3)C(C)C)CC2)cc1 | -12
COc1ccccc1-c1cnc2c(c1)C(=O)N([C@H](C)CO)C[C@@H](C)[C@@H](CN(C)Cc1ccncc1)O2 | -2.6
CC(=O)N1CCC(C(=O)N2c3ccccc3N=C(c3ccc(C(F)(F)F)cc3)C2C(=O)NC(C)C)CC1 (centres undefined) | -2.4
C/C=C/c1ccc([C@@H]2[C@H]3CN(Cc4ccccc4)CC(=O)N3[C@H]2CO)cc1 | 5.5
CN(C)CC(=O)N1[C@H](C#N)[C@H](c2ccccc2-c2cccc(C(=O)N(C)C)c2)[C@@H]1CO | -2.2
O=C(C[C@H]1CC[C@H](NC(=O)c2cccnc2)[C@H](CO)O1)NCc1ccc(Cl)c(Cl)c1 | -0.4
C[C@H](CO)N1C[C@H](C)[C@H](CN(C)S(C)(=O)=O)Oc2ccc(NC(=O)Nc3ccccc3)cc2C1=O | -4.2
COc1ccc2c3c(n(C)c2c1)[C@H](CO)N(Cc1ccccc1OC)CC31CCN(CC2CCOCC2)CC1 | -0.8
C[C@@H]1CN([C@@H](C)CO)C(=O)c2cc(N(C)C)ccc2O[C@@H](C)CCCCO[C@H]1CN(C)Cc1ccccc1 | 4.0
C[C@@H]1CN([C@H](C)CO)C(=O)c2cc(NC(=O)CCC(F)(F)F)ccc2O[C@@H](C)CCCCO[C@@H]1CN(C)S(=O)(=O)c1ccc(Cl)cc1 | -2.3
O=C(C[C@H]1C[C@H]2c3cc(NC(=O)Nc4ccc(C(F)(F)F)cc4)ccc3O[C@H]2[C@H](CO)O1)NCc1ccc2c(c1)OCO2 | 0.6
O=C(C[C@H]1C=C[C@@H](NC(=O)Nc2ccccc2F)[C@@H](CO)O1)NCc1ccc(F)cc1 | -1.3
C[C@H]1CN([C@@H](C)CO)C(=O)c2cccc(NS(=O)(=O)c3cccs3)c2O[C@@H]1CN(C)S(=O)(=O)c1ccccc1 | -17
C[C@H](CO)N1C[C@H](C)[C@H](CN(C)Cc2ccncc2)Oc2ccc(NC(=O)Cn3cnnn3)cc2CC1=O | -18
CO[C@H]1CN(C)C(=O)c2ccc(NC(=O)Nc3cccc(F)c3)cc2OC[C@@H](C)N(C)C[C@@H]1C | 5.2
CC(C)NC(=O)N(C)C[C@H]1Oc2ccc(NC(=O)CCCCCC(=O)Nc3ccccc3N)cc2CC(=O)N([C@H](C)CO)C[C@H]1C | ?
O=C(C[C@H]1C[C@@H]2c3cc(NC(=O)NC4CCCCC4)ccc3O[C@@H]2[C@H](CO)O1)NCCc1ccccc1 | -6.3
O=C(Nc1c(F)c(F)c(F)c(F)c1F)c1ccc(Br)o1 | -1.7
C[C@@H]1CN([C@H](C)CO)C(=O)c2cc(NC(=O)NC3CCCCC3)ccc2O[C@H]1CN(C)S(=O)(=O)c1cccs1 | -0.9
O=C(C[C@@H]1CC[C@@H](NC(=O)c2cccnc2)[C@H](CO)O1)NCc1ccc(Cl)c(Cl)c1 | -1.3
COc1ccc(S(=O)(=O)Nc2ccc3c(c2)C(=O)N([C@H](C)CO)C[C@H](C)[C@H](CN(C)Cc2ccc(C(F)(F)F)cc2)O3)cc1 | 2.6
CO[C@H]1CN(C)C(=O)c2cc(NC(=O)C3CC3)ccc2OC[C@@H](C)NC[C@@H]1C | -2.3
CC(C)C[C@H]1CN(CCCC[C@H]2CNC(=O)C(=O)N2Cc2ccccc2)C(=O)C(=O)N1CCC1CCCCC1 | 1.1
COc1ccc2c3c([nH]c2c1)[C@H](CO)N(C(=O)CC1CC1)CC31CN(Cc2ccncc2)C1 | 6.5
COC(=O)C[C@@H]1C[C@@H]2c3cc(NS(=O)(=O)c4cccc(OC)c4)ccc3O[C@@H]2[C@@H](CO)O1 | -1.7
COc1ccccc1-c1ccc2n(c1=O)C[C@H]1[C@H](CO)[C@@H](C(=O)Nc3nccs3)N(CC3CC3)[C@@H]21 | 3.1
CO[C@H]1CN(C)C(=O)c2ccc(NC(C)=O)cc2OC[C@H](C)N(C(=O)c2cccnc2)C[C@@H]1C | 0.7
(next part)
SMILES | AF4-AF9 inh
COc1ccc(C(C)C)cc1-c1ccc2nncn2c1 | 0.1
C/C=C/c1cnc2c(c1)C(=O)N([C@H](C)CO)C[C@@H](C)[C@H](CN(C)S(=O)(=O)c1ccccc1F)O2 | -1.6
CN1C[C@H]2[C@@H](c3ccccc31)[C@@H](CO)N2C(=O)c1cccnc1 | -5.8
Cc1ccc(S(=O)(=O)N(C)C[C@H]2Oc3ccc(NC(=O)Nc4ccc(C(F)(F)F)cc4)cc3CC(=O)N([C@H](C)CO)C[C@@H]2C)cc1 | -0.1
O=C(NC1CCCC1)[C@H]1[C@H](CO)[C@H]2Cn3c(ccc(-c4cccnc4)c3=O)[C@H]2N1CCc1ccccc1 | 8.4
Cc1ccccc1-c1ccccc1[C@@H]1[C@H](C#N)N(C(=O)c2ccc(F)cc2)[C@H]1CO | -1.7
CCCNC(=O)Nc1ccc2c(c1)OC[C@@H](C)N(C(C)=O)C[C@H](C)[C@@H](OC)CN(C)C2=O | -2.2
COc1cc(C(O)c2nc(-c3ccc(C)c(C)c3)cs2)ccc1F (centres undefined) | -0.4
CO[C@@H]1CN(C)C(=O)c2cc(NC(C)=O)ccc2OC[C@@H](C)N(C(=O)CN2CCOCC2)C[C@H]1C | -0.7
C[C@@H]1CCCCO[C@H](CN(C)C)[C@@H](C)CN([C@H](C)CO)C(=O)c2cc(NS(=O)(=O)c3ccc(Cl)cc3)ccc2O1 | -3.8
CO[C@@H]1CN(C)C(=O)c2cc(NC(=O)c3cc(C)on3)ccc2OC[C@@H](C)NC[C@H]1C | -2.4
OCc1ccc(-c2ccc3nccn3c2)cc1 | -3.4
COc1ccc(-c2noc(CCC(=O)N3CCN(c4ccccc4Br)CC3)n2)cc1 | 0.2
C[C@H]1CN([C@@H](C)CO)S(=O)(=O)c2ccc(Br)cc2O[C@H]1CN(C)C(=O)C1CC1 | -0.8
CN1C(=O)c2cc(NC(=O)C3CCCCC3)ccc2OC[C@H]2O[C@H](CC(=O)NCCc3ccncc3)CC[C@H]21 | 1.1
C[C@H]1CN([C@@H](C)CO)C(=O)c2cc(NS(=O)(=O)c3cn(C)cn3)ccc2O[C@@H]1CN(C)Cc1ccc(Oc2ccccc2)cc1 | 5.9
C/C=C/c1ccc([C@H]2[C@H](CO)N3C(=O)CN(C(=O)c4cccc(F)c4)C[C@@H]23)cc1 | -6.3
C[C@@H]1CN([C@@H](C)CO)C(=O)c2cccc(NC(=O)c3nc4ccccc4s3)c2O[C@@H]1CN(C)S(=O)(=O)c1cccs1 | 3.8
CC(=O)N(C)C[C@H]1Oc2ncc(C#CC(C)(C)O)cc2C(=O)N([C@H](C)CO)C[C@H]1C | -20
O=C(Nc1cc(F)ccc1F)N[C@H]1CC[C@@H](CCn2cc(C3CC3)nn2)O[C@@H]1CO | -2.0
CN1CCN(C(=O)C[C@@H]2C=C[C@H](NC(=O)Cc3ccccn3)[C@H](CO)O2)CC1 | -1.6
C[C@@H]1CCCCO[C@@H](CN(C)C(=O)CCC(F)(F)F)[C@H](C)CN([C@@H](C)CO)C(=O)c2cc(NC(=O)c3ccccc3)ccc2O1 | -7.3
O=C(NC1CCCC1)N1CCCCN2[C@H](C1)[C@@H](c1ccc(-c3cncnc3)cc1)[C@@H]2CO | -2.8
C[C@@H]1CN([C@H](C)CO)C(=O)Cc2cc(NC(=O)Nc3ccc(C(F)(F)F)cc3)ccc2O[C@@H]1CN(C)Cc1ccc(C(F)(F)F)cc1 | 1.4
CC(C)NC(=O)N(C)C[C@@H]1Oc2c(NC(=O)c3ccc(-c4nccs4)cc3)cccc2C(=O)N([C@H](C)CO)C[C@H]1C | -12
CCC(=O)N(C)C[C@H]1Oc2ncc(Br)cc2C(=O)N([C@@H](C)CO)C[C@@H]1C | -2.3
O=C(NCc1ccc(F)cc1)c1cc(C2CCCCN2S(=O)(=O)c2ccccc2)on1 (centres undefined) | -1.7
Cc1coc(=N)n1CC(=O)c1ccc(Cl)cc1 | -0.7
O=C(C[C@H]1C=C[C@@H](NC(=O)CC2CC2)[C@H](CO)O1)NCC(F)(F)F | 0.5
CO[C@H]1CN(C)C(=O)c2ccc(NS(=O)(=O)CC(F)(F)F)cc2OC[C@H](C)N(CC2CCCCC2)C[C@@H]1C | -1.8

Looked up one by one from above:
SMILES | AF4-AF9 inh
O=C(C[C@H]1C=C[C@@H](NC(=O)CC2CC2)[C@H](CO)O1)NCC(F)(F)F | 0.5
CO[C@H]1CN(C)C(=O)c2ccc(NS(=O)(=O)CC(F)(F)F)cc2OC[C@H](C)N(CC2CCCCC2)C[C@@H]1C | -1.8
Cc1coc(=N)n1CC(=O)c1ccc(Cl)cc1 | -0.7
C[C@@H]1CCCCO[C@@H](CN(C)C(=O)CCC(F)(F)F)[C@H](C)CN([C@@H](C)CO)C(=O)c2cc(NC(=O)c3ccccc3)ccc2O1 | -7.3
CN1CCN(C(=O)C[C@@H]2C=C[C@H](NC(=O)Cc3ccccn3)[C@H](CO)O2)CC1 | -1.6

Back to the main list, repeating the 3 entries before the break.
SMILES | AF4-AF9 inh
Cc1coc(=N)n1CC(=O)c1ccc(Cl)cc1 | -0.7
O=C(C[C@H]1C=C[C@@H](NC(=O)CC2CC2)[C@H](CO)O1)NCC(F)(F)F | 0.5
CO[C@H]1CN(C)C(=O)c2ccc(NS(=O)(=O)CC(F)(F)F)cc2OC[C@H](C)N(CC2CCCCC2)C[C@@H]1C | -1.8
C/C=C/c1cnc2c(c1)C(=O)N([C@H](C)CO)C[C@H](C)[C@@H](CN(C)C(=O)Nc1c(C)noc1C)O2 | -2.9
COc1ccc(NC(=O)N[C@H]2CC[C@H](CCn3cc(C4(O)CCCC4)nn3)O[C@@H]2CO)cc1 | -0.8
C[C@H]1CN([C@@H](C)CO)C(=O)c2cc(NC(=O)C3CC3)ccc2O[C@H]1CN(C)Cc1ccncc1 | -4.6
CCCCc1c(-c2ccccc2OC)ncn1Cc1ccccc1Cl | 6.7
C[C@H](CO)N1C[C@H](C)[C@H](CN(C)Cc2ccc(C(F)(F)F)cc2)Oc2ccc(NC(=O)CCN3CCOCC3)cc2CC1=O | -0.4
